# Compound activity: PubChem BioAssay, National Center for Advancing Translational Sciences (NCATS)
# TRPML1 inh = human mucolipin-1 channel inhibition | TRPML1-inducible cells, Ca2+ dye fluorescence, FDSS; active compounds read low; inhibition of EC80 agonist-evoked calcium signal | activity change, negative = inhibition, % (test concentration not listed) | Q9GZU1 | 0.02% of 390,000 active | AID 624415; in the data active means activity change below about -50%; inconclusive means about -30% to -50%; inactive means above about -30%;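 further: stimulus is agonist 54-4 at its EC80 concentration; on the % scale 0 is the no-effect control and ±100 the full control effect; compound concentration not given in the record; the text of the record puts the active cut at -80%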
# Target sequence (Q9GZU1 whole entry, looked up): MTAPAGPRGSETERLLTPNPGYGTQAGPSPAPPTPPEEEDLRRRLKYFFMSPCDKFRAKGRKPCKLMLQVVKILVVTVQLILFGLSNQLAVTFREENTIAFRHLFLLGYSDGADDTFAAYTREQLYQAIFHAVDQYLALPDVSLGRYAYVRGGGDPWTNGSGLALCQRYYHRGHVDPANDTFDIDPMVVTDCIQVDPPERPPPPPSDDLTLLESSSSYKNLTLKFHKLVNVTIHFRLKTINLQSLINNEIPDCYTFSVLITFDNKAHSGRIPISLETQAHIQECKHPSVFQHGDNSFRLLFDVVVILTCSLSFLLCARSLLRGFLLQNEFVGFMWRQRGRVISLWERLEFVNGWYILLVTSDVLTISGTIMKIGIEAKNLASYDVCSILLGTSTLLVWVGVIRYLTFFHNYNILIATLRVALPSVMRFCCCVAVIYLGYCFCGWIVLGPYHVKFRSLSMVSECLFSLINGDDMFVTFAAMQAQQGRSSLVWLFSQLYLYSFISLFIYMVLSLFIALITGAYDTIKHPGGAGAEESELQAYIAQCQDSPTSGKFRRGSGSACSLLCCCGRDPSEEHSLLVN
#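 TRPML1-DL cells, Tet-induced overnight (~16 h, 37 °C) at 1,500 cells/well, were loaded with Ca8 no-wash dye plus quencher for 45-90 min at room temperature. Compounds were pinned during FDSS kinetic reading; agonist 54-4 at EC80 (4 uM final) then added.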
# Menin MLL FP FL = displaces fluorescein MLL peptide from human menin; Fluorescence polarization, fluorescein-MLL peptide displacement from menin; FP activity change, % at 61.4 µM; 290,000 tested, under 10 active; AID 1766; inconclusive = falling polarisation curve, or a change in total fluorescence; inactive = total fluorescence flat and polarisation flat or rising; no compound was filed as active; the % refers to the polarisation; negative = inhibition;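 further: % of control where 0% means no effect; inhibitors lower the polarisation; unlabelled MLL peptide was the positive control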
# gsp ag = activates gsp, the McCune-Albright syndrome mutation. gsp mutant cells, cAMP HTRF, 30 min; control for the full effect not named in the record. 0.13% of 340,000 active. Potency, µM (doses to about 76.9 µM), inactives show top-dose activation (cAMP increase), hits mostly activators; active = well fitted activation curve with a large enough effect; inconclusive = small, poorly fitted or top-dose-only effect, or another doubt; inactive = no such curve, though single readings can be large or run the other way; cell line not stated here;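 further: phosphodiesterase inhibitor Ro 20-1724 added with compounds to block cAMP breakdown; potency means the concentration at half of the fitted maximal effect; nearly all actives have a fitted effect of over 60% in size; about a fifth of the inactives were tested at one dose only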
#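 Cells in DMEM/10% FBS with G418 were pretreated with compounds in DMSO plus […] (300 uM stock) for 30 min at 37C. cAMP was measured by HTRF (cAMP-d2 plus anti-cAMP antibody-K) after 30 min at room temperature.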
# gsp antagonist = gsp mutant antagonism | gsp-mutant cells, cAMP HTRF, 30 min; control for the full effect not named in the record | Potency, µM (highest dose often 76.9 µM), without a hit: top-dose activity change, negative = inhibition, usual class: inhibitors | 0.4% of 340,000 active; active = falling curve of any shape with a large fitted effect; inconclusive = falling curve, mostly with a smaller effect; inactive = flat or rising curve; cell line not stated here;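 further: intracellular cAMP measured with PDE inhibitor Ro 20-1724 present during compound exposure; potency means the concentration at half of the fitted maximal effect; on the % scale 0 is the no-effect control and ±100 the full control effect; nearly all actives have a fitted effect of over 65% in size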
#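 Cells, 2000/well, grown 16–24 h in DMEM 10% FBS with 0.5 mg/ml G418, then compounds plus […] (300 uM addition stock), 30 min at 37C. cAMP read by HTRF (cAMP-d2 and anti-cAMP antibody-K in lysis buffer) after 30 min RT.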
# ClpP mod = qHTS Assay for Activators of ClpP; purified B. subtilis ClpP, FRET peptide cleavage, 20 min; Potency, µM (titrated, usually from 57.5 µM), without a hit: at the top dose activity change, negative = active; 1.9% of 340,000 active; active = well fitted falling curve with a large enough effect; inconclusive = small, poorly fitted or top-dose-only effect; inactive = no such curve, though single readings can be large or run the other way; further: potency means the concentration at half of the fitted maximal effect; the source files actives as falling curves though it sought activators and does not explain the sign; nearly all actives have a fitted effect of over 65% in size; many hits overshoot -100%
# Target sequence (P80244 whole entry, looked up): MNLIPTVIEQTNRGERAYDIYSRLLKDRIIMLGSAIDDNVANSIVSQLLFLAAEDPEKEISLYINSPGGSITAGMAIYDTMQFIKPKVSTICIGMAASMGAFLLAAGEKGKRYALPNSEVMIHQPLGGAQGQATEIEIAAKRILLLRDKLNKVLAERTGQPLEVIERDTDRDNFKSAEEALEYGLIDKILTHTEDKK
#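 Purified B. subtilis ClpP, 10 microg/mL final in Tris/HCl pH8 with KCl, BSA, glycerol and Tween-20, cleaved an Abz/nitrotyrosine-quenched decapeptide. Fluorescence (ex 320, em 430) was read at 0 and 20 min at room temperature. Delta was normalized to 5.8 microM ADEP and DMSO/no-enzyme controls.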
# TRPML1 ag = agonists of human TRPML1 channel; TRPML1-expressing cells, Ca2+ dye fluorescence, FDSS; host cell line not named in the record; reference of the full effect not given here; 0.12% of 410,000 active; activation, % (concentration not given with the values); Q9GZU1; in the data active = activation above about 50%; inconclusive = about 30% to 50%; inactive = below about 30%; further: 0% is about no effect; the text of the record puts the active cut at 80%
#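 TRPML1-DL cells, Tet-induced overnight (~16 h, 37 degrees C), loaded 45-90 min at room temperature with Ca8 no-wash calcium dye plus quencher. FDSS fluorescence: 10 s baseline, compound pin-transfer, 110 s agonist read, then EC80 54-4 (4uM final) and 110 s antagonist read.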
# Starred values were filed as active, the others as inactive; ? = inconclusive; . = no result given; & = joins results of further samples; [ ] = dose if it differs, or a comment.
SMILES,TRPML1 inh,Menin MLL FP FL,gsp ag,gsp antagonist,ClpP mod,TRPML1 ag
CCC(CO)Oc1cc(NCc2cccnc2)c2ncn(C(C)C)c2c1 (stereo unspecified),2,.,.,-1%,-4.8%,-0.6
Cc1ccc(S(=O)(=O)N2CCOCC2)cc1NS(=O)(=O)c1ccc(F)c(F)c1,11,.,-40%[inhibitor],-17%,-0.5%,0.0
Cc1ccc(CNC(=O)c2ccccc2NS(C)(=O)=O)cc1,-4,0.7,24%,0%,28µM*,-0.9
Cc1ccc(CNC(=O)CSc2ncc(C(=O)Nc3ccccc3)c(=O)n2C)cc1,-16,.,-7%[15.4 µM],11%,0.8%,0.9
Cc1nn(-c2ccccc2)c(C)c1C(=O)NCc1ccccc1F,20,-1.4,2%[15.4 µM],6%,.,0.1
Cc1ccc(Cl)cc1NC(=O)CN(C)S(=O)(=O)c1ccc2c(c1)n(C)c(=O)c(=O)n2C,-4,.,.,.,-5.7%,-0.1
COc1ccc(C(=O)Nn2c(C)nc3ccccc3c2=O)c(OC)c1,-5,3.5,-27%,3%,1.5%,1.6
Nn1c(SCC(=O)Nc2ccc(F)cc2F)nnc1-c1cccnc1,-3,-1.5,-15%,7%,0.4%,-0.8
CCO[C@@H]1OC(C(=O)N2CCN(Cc3ccccc3)CC2)=C[C@H](c2ccccc2)[C@H]1CCCO,2,-0.2,23%,-6%,1.5%,-0.4
Cc1ccc(N2CC(C(=O)Nc3nnc(SCCC4OCCO4)s3)CC2=O)cc1 (stereo unspecified),0,0.5,-42%[inhibitor],-8%,-0.1%,0.0
O=C(C1CCC(=O)N(C2CCCC2)C1)N1CCN(Cc2cccc(Cl)c2)CC1 (stereo unspecified),2,.,6%[15.4 µM],6%,0.3%,0.5
O=S(=O)(NC1CC1)c1ccc2c3c(cccc13)CC2,17,-3.8,-3%[15.4 µM],-25%,.,2.4
CCOC(=O)N1CCN(C(=O)CS(=O)(=O)c2cn(Cc3ccc(Cl)cc3)c3ccccc23)CC1,-15,-2.2,-11%,-25%,3.6%,-0.1
OCc1ncccc1O,-9,3.3,-82%[inhibitor],14%,-11%,3.7
O=C(COC(=O)c1ccc(S(=O)(=O)C(F)F)cc1)Nc1cccnc1Cl,0,.,40%[15.4 µM],-7%,.,-0.7
C#CCOCCOCCOCCNc1nc(N2CCOCC2)nc(N2CCN(C(=O)CCCCCCCCCCNC(=O)[C@H](CO)n3cc(CCCCCN)nn3)CC2)n1,-10,.,.,11%,-1.8%,0.4
Cc1ccc(C(=O)CSc2ncnc3sc4c(c23)CCC(C)C4)cc1 (stereo unspecified),2,2.5,-5%[15.4 µM],5%,-2.0%,0.4
CC(C(=O)O)n1c(-c2ccn[nH]2)n[nH]c1=S (stereo unspecified),.,8.3,-2%,-3%,0.2%,.
O=C(COC(=O)Cc1c(F)cccc1Cl)Nc1ccc2[nH]c(=O)[nH]c2c1,-3,.,12%,-3%,.,0.4
COc1ccc(C(=O)OCC(=O)NCCN2C(=O)CSC2=O)cc1,9,-1.3,12%[15.4 µM],12%,.,1.5
COc1ccc(NS(=O)(=O)c2cc(NC(=O)C3CCCO3)ccc2N2CCCCC2)cc1 (stereo unspecified),6,3.8,-9%[15.4 µM],-11%,.,0.0
O=C(/C=C/c1ccccc1)c1ccccc1,-10,-1.9,.,-14%,-0.1%,3.4
CCN(CC)S(=O)(=O)c1ccc(N2CCCC2)c(NC(=O)C2=COCCO2)c1,-4,.,5%[15.4 µM],7%,.,1.6
Cc1cc(S(=O)(=O)N(Cc2ccccc2)Cc2ccc(N(C)C)cc2)ccc1-n1cnnn1,-14,-6.5,-17%,-6%,-5.7%,1.9
O=[N+]([O-])c1cccc(-c2csc(N/N=C/c3cccc(O)c3)n2)c1,-15,-0.4,2%[15.4 µM],-15%,.,0.4
C/C(=C/C(=O)NCc1ccccc1)C(=O)O,6,1.0,-16%,10%,1.4%,0.7
Cc1ccccc1S(=O)(=O)Cc1ccc(C(=O)NCCN(CC(C)C)CC(C)C)o1,53,-5.6,2%,-4%,1.0%,0.4
Cc1ccc(C)c(C(=O)COC(=O)CCN2C(=O)C3C4CCC(C4)C3C2=O)c1 (stereo unspecified),14,-2.6,0%,6%,-5.1%,1.0
CS(=O)(=O)N1CCc2cc(C(=O)Nc3ccc(C(F)(F)F)cc3)ccc21,6,.,.,.,9.6%,-0.3
O=S(=O)(NCC(c1ccc2c(c1)OCO2)N1CCN(c2ccccc2)CC1)c1ccccc1 (stereo unspecified),9,.,-23%,3%,-5.1%,1.5

# Rewritten with values under each structure: two of the compounds above
# Second line of a record – TRPML1 inh	Menin MLL FP FL	gsp ag	gsp antagonist	ClpP mod	TRPML1 ag
> CC(C(=O)O)n1c(-c2ccn[nH]2)n[nH]c1=S (stereo unspecified)
→ .	8.3	-2%	-3%	0.2%	.
> O=C(COC(=O)Cc1c(F)cccc1Cl)Nc1ccc2[nH]c(=O)[nH]c2c1
→ -3	.	12%	-3%	.	0.4

# (next part)
SMILES,TRPML1 inh,Menin MLL FP FL,gsp ag,gsp antagonist,ClpP mod,TRPML1 ag
CCCCOCCCNC(=O)c1ccc([N+](=O)[O-])c(C)c1,-25,5.2,-1%,?,2.6%,1.3
Cc1ccc2[nH]c(=O)c3cc(C(=O)NCC4CCCO4)sc3c2c1 (stereo unspecified),3,2.0,5%[15.4 µM],-12%,.,-1.0
Oc1ccc(C2C(c3ccccc3)=NN=C(c3ccccc3F)N2O)c(O)c1 (stereo unspecified),32,2.6,20%,13%,-4.4%,-1.8
COc1ccc(Br)cc1C(=O)Nc1ccc(-c2nc3ncccc3o2)cc1C,32,.,.,.,0.1%,1.0
Cc1ccc(S(=O)(=O)N(CC(=O)NCCC2=CCCCC2)Cc2ccccc2)cc1,82,-0.4,-23%,?,0.2%,2.5
O=C(N/N=C/c1ccc2c(c1)OCO2)C(=O)N1CCCC1,53,-3.3,15%,-6%,.,0.0
Cc1ccc2nc(N(CCCN(C)C)C(=O)c3ccc(S(=O)(=O)N4CCc5ccccc5C4)cc3)sc2c1,5,2.5,1%[15.4 µM],-3%,0.3%,2.0
COCCOn1c(SCCOC)nc2ccccc2c1=O,-13,0.7,10%[15.4 µM],-4%,.,0.6
N#Cc1cccc(S(=O)(=O)NCc2nnc3ccccn23)c1,16,.,1%,13%,-0.6%,0.6
CCn1c(O)c(N=NC(=S)NCC2CCCO2)c2ccccc21 (stereo unspecified),18,-5.4,-39%,-19%,0.1%,2.6
CCOc1ccc(N(Cc2cc3cc(C)ccc3[nH]c2=O)C(=O)c2cccc(Cl)c2)cc1,7,.,.,.,-1.1%,-0.6
O=C1c2cccnc2C(=O)N1c1cccc([N+](=O)[O-])c1,-7,-5.4,?,14%,.,0.5
Cc1cccc(C#N)c1NC1=CC(=O)CC(C)(C)C1,0,-0.6,-26%,-9%,-3.0%,-0.3
CC1CCN(C(=O)C2CCN(S(=O)(=O)c3cccs3)CC2)CC1,-5,-2.4,1%[15.4 µM],1%,-1.7%,-0.2
CCN(C(=O)c1cnc2scc(C)n2c1=O)c1ccccc1C,1,-0.5,-7%,-8%,-28%,-0.1
N=C(N)c1ccc(Cl)cc1,14,-0.6,-5%,-8%,.,0.1
CCN(CC)c1ccc(NC(=O)CN2C(=O)c3cccnc3Oc3ccccc32)c(C)c1,21,.,.,.,-9.2%,0.7
CCN(CC)S(=O)(=O)c1ccc2c(c1)C(=NO)c1cc(S(=O)(=O)N(CC)CC)ccc1-2,59,3.0,-4%,-28%,157%,0.1
COc1ccc2nc(C)c3cc(C)oc3c2c1,11,5.4,?,-8%,-8.2%,-0.1
O=C(Nc1ccc(N2CCN(C(=O)c3cccs3)CC2)c(Cl)c1)c1ccco1,9,4.5,4%,?,-2.3%,5.1
COc1ccc(-n2cc(C(=O)OCc3ccc(Cl)cc3)c3ccccc3c2=O)cc1,3,.,.,.,-0.8%,-0.1
N=c1c2ccccc2nc2n1CCCCCCCCCCC2,11,.,17%[15.4 µM],-6%,.,0.9
CCn1c(SCC(=O)Nc2ccc3c(c2)c2ccccc2n3CC)nnc1-c1cnccn1,-4,?,-1%,-2%,0.9%,-0.1
CCn1ccnc1CN(C)C(=O)c1cc(COc2ccc(Cl)cc2OC)on1,-10,.,?,-1%,-3.0%,1.2
Cc1c(CC(=O)NCC(=O)O)c(=O)oc2cc3occ(-c4ccccc4)c3cc12,-4,-1.7,-11%[15.4 µM],8%,-1.9%,-0.3
O=C(Nc1ccc(Cl)cc1)c1ccsn1,12,3.1,9%,2%,1.1%,-0.6
CCc1ccc(CN(C)C(=O)c2cc(COc3c(F)cccc3F)on2)cc1,20,0.0,-10%[15.4 µM],?,.,2.0
COc1ccccc1NC(=S)N1CC(C)(C)C1=O,7,6.4,-43%[inhibitor],2%,1.7%,0.6
COc1ccc(CNC(=O)CN2C(=O)COc3ccc(S(=O)(=O)N4CCOCC4)cc32)cc1,-3&-29,-0.4,-19%,7%,0.0%&-4.1%,3.0&1.8
CNC(=O)c1c(NC(=O)c2ccco2)sc(C)c1C,1,.,-10%[15.4 µM],3%,-5.9%,0.9
CCCC1=Nc2cc(C(=O)NCCc3ccc(OCC)cc3)ccc2Sc2ccccc21,14,.,.,.,0.4%,2.0
O=C(c1ccncc1)N(Cc1cc2ccccc2[nH]c1=O)C1CCCCC1,-7,9.7,2%,-24%,?,0.5
CCc1ccc(NCc2cc3cc(OC)c(OC)cc3n(CC(=O)Nc3ccc(F)cc3)c2=O)cc1,-4,.,.,.,4.2%,8.9
CCC(C#CCN1CCOCC1)(CC)OCCC#N,1,1.6,-22%,8%,?,-1.2
COc1ccc(-c2c(C)c3ccc(O)c(CN4CCCC(C)C4)c3oc2=O)cc1OC (stereo unspecified),53,.,.,.,4.9%,-0.9
Cc1ccc(C(=O)NCC(=O)OCc2csc(-c3ccccc3)n2)cc1,-2,-0.8,0%,-6%,2.7%,1.8
N#CC1C=Cc2ccccc2N1C(=O)c1ccccc1 (stereo unspecified),.,1.8,?,8%,-0.4%,.
Cc1cccc(NC(=O)c2ccc(S(=O)(=O)N(C)C)cc2)n1,-21,1.1,-14%,-6%,-1.5%,0.5
O=C(O)c1cccnc1Sc1ccc(Br)cc1,7,-5.6,1%[15.4 µM],.,.,0.4
CCOC(=O)Cn1nc(Cc2ccccc2)c2ccccc2c1=O,-8,4.0,?,-22%,3.2%,0.0
O=C(O)c1cnn2c(C(F)(F)F)cc(-c3ccco3)nc12,2,2.5,3%,-6%,-2.6%,-0.8

# This is a random part of the collection. Share with any hit: about 2.1%.
